Bioassay records as filed in PubChem BioAssay.
Polio RdRp inh = poliovirus RNA polymerase inhibition; AID 588519; 0.66% of 150,000 active; % elongation, % (compound at 16.7 µg/mL); P03300; poliovirus polymerase elongation, fluorescence polarization; hits give low values; in the data active means % elongation below about 90%; further: some results filed as inactive read as strong as hits
Target sequence (P03300 1749-2209 limits assumed): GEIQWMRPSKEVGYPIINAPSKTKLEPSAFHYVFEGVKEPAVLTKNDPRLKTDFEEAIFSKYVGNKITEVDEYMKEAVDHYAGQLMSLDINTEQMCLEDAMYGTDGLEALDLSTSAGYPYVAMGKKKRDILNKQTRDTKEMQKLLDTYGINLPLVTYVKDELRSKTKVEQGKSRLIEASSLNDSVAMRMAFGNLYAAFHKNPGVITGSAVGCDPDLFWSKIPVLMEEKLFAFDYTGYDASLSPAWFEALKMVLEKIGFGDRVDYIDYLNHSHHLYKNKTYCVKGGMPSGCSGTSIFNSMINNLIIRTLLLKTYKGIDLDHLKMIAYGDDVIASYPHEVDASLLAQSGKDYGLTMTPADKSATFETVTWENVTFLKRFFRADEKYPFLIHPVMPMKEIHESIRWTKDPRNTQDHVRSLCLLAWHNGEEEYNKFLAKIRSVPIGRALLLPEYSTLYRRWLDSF
Polio RdRp inh intensity = also measured in Polio RdRp inh; calls as there; % elongation; measured here: total intensity read-out; formula for this scale not given here;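 total fluorescence in place of polarization; lower means less elongation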
* hit, by the source's call. Not all compounds are listed; count on the stated rates, not on these rows.

SMILES | Polio RdRp inh | Polio RdRp inh intensity
O=C(Nc1ccccc1C(F)(F)F)c1ccc(F)c(S(=O)(=O)N2CCc3ccccc3C2)c1 | 104 | 111
CCCCc1nn2c(=O)cc(COC(=O)c3cccc(NC(=O)CCc4ccccc4)c3)nc2s1 | 111 | 114
CC1CCC(NC(=O)CCc2cn(Cc3ccc(F)cc3)c3ccccc23)CC1 (stereo not given) | 104 | 109
CCc1nc2ccc(C(=O)N3CCN(c4cccc(OC)c4)CC3)cc2nc1CC | 108 | 107
Cc1ccc(CN(C(=O)COc2cccc([N+](=O)[O-])c2)c2ccccn2)o1 | 111 | 103
CCOC(=O)N1CCc2c(sc3c2C(=O)NC(c2ccccc2F)N3)C1 (stereo not given) | 103 | 104
CCc1ccc(NC(=O)Cn2cc(S(=O)(=O)N3CCCC3)c(S(=O)(=O)N3CCCC3)c2)cc1 | 107 | 114
O=C(NCc1ccccc1)c1ccc(CSc2nc3cccnc3n2Cc2ccccc2F)cc1 | 100 | 99
CCN(CC)c1ccc(CNS(=O)(=O)c2cc3c(cc2C)NC(=O)CO3)cc1 | 103 | 109
Cc1c(Cl)cccc1NC(=O)CCS(=O)(=O)c1ccc(Br)s1 | 106 | 112
Cc1cccc(OCC(=O)Nc2ccc3nc(Nc4cccc(Cl)c4)cc(C)c3c2)c1 | 97 | 101
CCOc1ccc(C(=O)Nc2ccc3c(c2)CCCN3S(=O)(=O)c2ccc(C)cc2)cc1 | 109 | 107
CCOc1ccc(/C=C/c2nc(C#N)c(NCCc3ccccc3)o2)cc1 | 112 | 117
Cc1ccc(-c2cnc(NCc3ccc(C(F)(F)F)cc3)n2C)cc1 | 101 | 100
O=C(O)c1cc(-n2c(/C=C\c3ccc(F)cc3)nc3ccccc3c2=O)ccc1Cl | 110 | 111
CC(CNC(=O)C1CCN(C(=O)c2cc3sccc3n2C)CC1)c1ccccc1 (stereo not given) | 107 | 109
Clc1ccccc1Cn1cccc1C1=NC(Cc2ccccc2)CO1 (stereo not given) | 108 | 110
COc1ccc(N2CCN(C(CNC(=O)c3ccc(C)cc3)c3ccc4c(c3)OCO4)CC2)cc1 (stereo not given) | 108 | 110
COc1ccc(OC)c(NC(=O)C2CCN(S(=O)(=O)c3c(C)noc3/C=C/c3ccc(C)cc3)CC2)c1 | 109 | 116
COC(=O)c1ccccc1NC(=O)CCCn1c(C)c2cnn(-c3ccccc3)c(=O)c2c1C | 105 | 106
COc1ccc(-c2nc(CN3C(=O)CN=C(c4ccccc4)c4ccccc43)c(C)o2)cc1 | 110 | 112
N#C/C(=C\c1c(Oc2ccc(F)cc2)nc2ccccn2c1=O)c1nc2ccccc2s1 | 90 | 116
CCC(C)c1ccccc1OCC(=O)Nc1ccc(S(=O)(=O)Nc2cc(C)on2)cc1 (stereo not given) | 107 | 110
Cc1c(C(=O)Nc2ccc(F)c(F)c2)oc2ccc(S(=O)(=O)N(C)C3CCCCC3)cc12 | 112 | 107
Cc1ccc(NC(=O)c2ccc(-c3cccc(Cl)c3C)o2)cc1 | 105 | 109
Cc1ccc(Cn2c(C(=O)O)c(CNC3CCCCC3)c3ccc(C)cc32)cc1 | 107 | 105
O=C(Nc1ccc2c(c1)OCO2)c1cccn(Cc2cccc([N+](=O)[O-])c2)c1=O | 103 | 105
CCn1cc(C(=O)N(C)Cc2ccccc2)c(=O)c2cc(S(=O)(=O)N3CCc4ccccc4C3)ccc21 | 104 | 107
CCOC(=O)c1ccc(NC(=O)C2Cc3ccccc3C(=O)O2)cc1 (stereo not given) | 103 | 104
COc1ccccc1C(=O)OCc1cc(=O)n2nc(C3CC3)sc2n1 | 113 | 115
COc1ccc(CCNC(=O)CCc2c(C)c3cc4c(C)coc4cc3oc2=O)cc1 | 108 | 102
Cc1nc2c(-c3ccc(F)cc3)c(C)nn2c(C)c1CCC(=O)NCc1cccc(Cl)c1 | 103 | 105
COc1ccc2c(c1)c1c(c(=O)n(-c3cccc(Cl)c3)c(=O)n1CC(=O)NCC1CCCO1)n2C (stereo not given) | 104 | 112
COc1ccc(C(=O)NCC(c2cccs2)S(=O)(=O)c2ccc(C)cc2)cc1 (stereo not given) | 112 | 109
Cc1cc(C)cc(NC(=O)C2CCN(c3nc4ccccc4nc3C(F)(F)F)CC2)c1 | 106 | 106
CCc1cc2c(cc3c(=O)n(CCCC(=O)NCc4cccc(Br)c4)ncn32)s1 | 108 | 113

Compound profiles (already shown). Order of values: Polio RdRp inh | Polio RdRp inh intensity
Listed for `COc1ccc(-c2nc(CN3C(=O)CN=C(c4ccccc4)c4ccccc43)c(C)o2)cc1` = 110 | 112
Listed for `COc1ccc2c(c1)c1c(c(=O)n(-c3cccc(Cl)c3)c(=O)n1CC(=O)NCC1CCCO1)n2C` (stereo not given) = 104 | 112

Later entries
SMILES | Polio RdRp inh | Polio RdRp inh intensity
Cc1ccccc1NC(=O)c1c2c(nc3ccccc13)C(=O)N(C1CCCCC1)C2 | 112 | 119
Cc1cccc(NC(=O)c2c(C)cc(C)nc2SCC(=O)c2ccccc2)c1 | 110 | 110
COc1cc2c(=O)n(CCC(=O)NCC3CCCO3)c(=O)n(CC(=O)Nc3ccc(C)cc3)c2cc1OC (stereo not given) | 104 | 105
CCc1cccc(C)c1NC(=O)c1cnn(-c2ccc(F)cc2)c1-n1cccc1 | 106 | 110
Nc1ncc(S(=O)(=O)NCc2ccccc2)cn1 | 104 | 106
COc1ccc(CCNC(=O)c2ccc3c(c2)ncn3-c2ccc(C(C)C)cc2)cc1OC | 107 | 113
COc1ccc(C)cc1NC(=O)C(Cc1ccccc1)NS(=O)(=O)c1cccs1 (stereo not given) | 101 | 104
Fc1cccc(-n2ncc3c2ncn2nc(-c4ccccc4Cl)nc32)c1 | 117 | 118
CCCN(CCC)C(=O)Cn1c(=O)n(CCCCCC(=O)NCc2ccccc2Cl)c(=O)c2sccc21 | 105 | 110
Cc1ccc2onc(CC(=O)N3CCN(c4cc(Cl)ccc4C)CC3)c2c1 | 104 | 98
COc1ccc(-c2noc(N3CCC(C(=O)N4CCN(c5ccccc5OC)CC4)CC3)n2)cc1 | 105 | 113
Cn1nc(-c2ccc(C(=O)Nc3cccc(C(F)(F)F)c3)cc2)c2ccccc2c1=O | 103 | 107
Cc1noc(C)c1S(=O)(=O)N1CCC(C(=O)Nc2ccc(Br)cc2)CC1 | 111 | 115
CCOC(=O)c1c(S(=O)(=O)N2CCC(C(=O)Nc3ncccc3C)CC2)c(C)n(C)c1C | 111 | 111
CCOC(=O)Cn1c(=O)n(CC2CCCO2)c2nc(-c3ccc(C)cc3)nc(C(N)=O)c21 (stereo not given) | 115 | 110
Cc1cccc(Cn2c(CN3CCCC(C)C3)nc3c2c(=O)n(C)c(=O)n3C)c1 (stereo not given) | 106 | 107
CCCCNS(=O)(=O)c1ccc2nc(-c3cccnc3)cc(C(=O)NCCOC)c2c1 | 108 | 112
COc1ccc(S(=O)(=O)NCCCO)cc1-c1nnc2c3ccccc3c(C)nn12 | 101 | 98
Cc1ccccc1-c1noc(-c2ccc(N3CCC(C)CC3)c([N+](=O)[O-])c2)n1 | 102 | 110
CCOC(=O)c1c(NC(=O)c2cc(-c3ccc(Br)cc3)on2)sc(C(C)=O)c1C | 102 | 104
Cc1ccc(-n2c(SCc3ccccc3F)nc3[nH]ncc3c2=O)cc1C | 100 | 109
CCOc1ccc(-c2nc(SCC(=O)Nc3ccc4c(c3)OCCO4)c(-c3ccc(F)cc3)[nH]2)cc1 | 114 | 118
COc1ccccc1NC(=O)c1cn(-c2ccccc2)nc1-c1ccccc1 | 105 | 94
Cc1ccc(CNC(=O)c2cc3c(=O)n4cccc(C)c4nc3s2)cc1 | 109 | 109
Cc1ccc(C)c(CNC(=O)c2cc3ccccn3n2)c1 | 106 | 105
COc1ccccc1NC(=O)C(Cc1ccccc1)NS(=O)(=O)c1ccc2c(c1)c(=O)n(C)c(=O)n2C (stereo not given) | 98 | 96
CCC(C)NC(=O)c1c(C)oc2ncn(CC(C)C)c(=O)c12 (stereo not given) | 111 | 115
COc1cccc(-c2cn3c(n2)sc2cc(C(=O)NCc4cccs4)ccc23)c1 | 112 | 111
CCCc1noc(-c2ccc(NCc3ccccc3OC)c([N+](=O)[O-])c2)n1 | 114 | 118
Cc1ccc(Cl)cc1N1CCN(S(=O)(=O)c2ccc3c(c2)CC(C)N3C(=O)C2CCC2)CC1 (stereo not given) | 103 | 95
Cc1ccc(S(=O)(=O)c2nnn3c2nc(N2CCCCC2)c2sccc23)cc1 | 102 | 98
O=C(/C=C\c1ccc2c(c1)OCO2)NC1CC(=O)N(c2ccccc2)C1 (stereo not given) | 103 | 81
COc1ccc(NC(=O)CCn2cnc3onc(-c4ccc(F)cc4)c3c2=O)cc1OC | 96 | 96
COc1ccc(NC(=O)c2oc3ccccc3c2NC(=O)Cc2coc3cc(C)ccc23)cc1 | 118 | 116
Cc1cccc(N2C(=O)CSC23C(=O)N(C)c2ccccc23)c1 (stereo not given) | 100 | 104
CCOc1ccccc1CNC(=O)CSc1n[nH]c(-c2ccccc2Cl)n1 | 105 | 113
COc1ccc(C)cc1S(=O)(=O)NCC(c1cccs1)S(=O)(=O)c1ccc(C)cc1 (stereo not given) | 104 | 110
CCCN1CCN(CCCNC(=O)Cn2nc(C)n3c(cc4cc(F)ccc43)c2=O)CC1 | 108 | 112
CCN1CCN(c2c(S(=O)(=O)c3ccc(OC)cc3)cnc3cc(OC)c(OC)cc23)CC1 | 100 | 105
CCOC(=O)c1ccc(NC(=O)CSc2ncc(S(=O)(=O)c3ccc(C)c(Cl)c3)c(=O)[nH]2)cc1 | 100 | 99
COc1ccc(C2=C(C)C(N3CCC(C(=O)NCc4ccc(C)o4)CC3)=NS2(=O)=O)cc1 | 110 | 111
Cc1ccc(NC(=O)Cn2c(=O)n(CCCCC(=O)NCc3ccccc3Cl)c(=O)c3ccccc32)cc1 | 108 | 110
O=C(Cn1cc(SCc2ccc(Cl)cc2)c2ccccc21)N1CCCC1 | 111 | 107
Cc1oc2ccc(O)c(CN3CCOCC3)c2c1C(=O)Nc1cccc(C(F)(F)F)c1 | 99 | 105
CC1=Nc2cc(C(=O)NC3CCC(C)CC3)ccc2Sc2c(C)ccc(C)c21 (stereo not given) | 108 | 112
Cc1cc(=O)n(Cc2cccc(F)c2)c2c1c(C)nn2-c1cccc(F)c1 | 98 | 95
Cc1ccc(-n2c(=O)c3c4c(sc3n(Cc3cc(=O)n5ccccc5n3)c2=O)CCC4)cc1C | 103 | 99
COc1ccc(-c2noc(-c3cccc(OC)c3OC)n2)cc1 | 106 | 110
COc1ccc(-c2cc(C)no2)cc1S(=O)(=O)N1CCCC(C)C1 (stereo not given) | 102 | 105
Fc1ccc(NCc2ccccc2-c2nnc(-c3ccccc3Cl)o2)cc1Cl | 109 | 112
CCc1nnc(SCC(=O)Nc2cc(Cl)c(OC)cc2OC)c2cc3oc(C)cc3n12 | 112 | 113

In the list so far, these contain a Cl atom.
SMILES | Polio RdRp inh | Polio RdRp inh intensity
Cc1c(Cl)cccc1NC(=O)CCS(=O)(=O)c1ccc(Br)s1 | 106 | 112
Cc1cccc(OCC(=O)Nc2ccc3nc(Nc4cccc(Cl)c4)cc(C)c3c2)c1 | 97 | 101
O=C(O)c1cc(-n2c(/C=C\c3ccc(F)cc3)nc3ccccc3c2=O)ccc1Cl | 110 | 111
Clc1ccccc1Cn1cccc1C1=NC(Cc2ccccc2)CO1 (stereo not given) | 108 | 110
Cc1ccc(NC(=O)c2ccc(-c3cccc(Cl)c3C)o2)cc1 | 105 | 109
Cc1nc2c(-c3ccc(F)cc3)c(C)nn2c(C)c1CCC(=O)NCc1cccc(Cl)c1 | 103 | 105
COc1ccc2c(c1)c1c(c(=O)n(-c3cccc(Cl)c3)c(=O)n1CC(=O)NCC1CCCO1)n2C (stereo not given) | 104 | 112
Fc1cccc(-n2ncc3c2ncn2nc(-c4ccccc4Cl)nc32)c1 | 117 | 118
CCCN(CCC)C(=O)Cn1c(=O)n(CCCCCC(=O)NCc2ccccc2Cl)c(=O)c2sccc21 | 105 | 110
Cc1ccc2onc(CC(=O)N3CCN(c4cc(Cl)ccc4C)CC3)c2c1 | 104 | 98
Cc1ccc(Cl)cc1N1CCN(S(=O)(=O)c2ccc3c(c2)CC(C)N3C(=O)C2CCC2)CC1 (stereo not given) | 103 | 95
CCOc1ccccc1CNC(=O)CSc1n[nH]c(-c2ccccc2Cl)n1 | 105 | 113
CCOC(=O)c1ccc(NC(=O)CSc2ncc(S(=O)(=O)c3ccc(C)c(Cl)c3)c(=O)[nH]2)cc1 | 100 | 99
Cc1ccc(NC(=O)Cn2c(=O)n(CCCCC(=O)NCc3ccccc3Cl)c(=O)c3ccccc32)cc1 | 108 | 110
O=C(Cn1cc(SCc2ccc(Cl)cc2)c2ccccc21)N1CCCC1 | 111 | 107
Fc1ccc(NCc2ccccc2-c2nnc(-c3ccccc3Cl)o2)cc1Cl | 109 | 112
CCc1nnc(SCC(=O)Nc2cc(Cl)c(OC)cc2OC)c2cc3oc(C)cc3n12 | 112 | 113
